Source: PubChem
KAT2A inh = blocks human GCN5L2 histone acetyltransferase. Q92830. GCN5L2 HAT assay, ThioGlo1 CoA-SH fluorescence. Potency, µM (series often up to 58.9 µM), for the others: at the highest dose activity change, negative = inhibition, actives largely listed as inhibitors. hit rate 0.21% among 390,000; active = well fitted inhibition curve with a large enough effect; inconclusive = small, poorly fitted or top-dose-only effect, or another doubt; inactive = no such curve, though single readings can be large or run the other way
Target sequence (Q92830 whole entry, looked up): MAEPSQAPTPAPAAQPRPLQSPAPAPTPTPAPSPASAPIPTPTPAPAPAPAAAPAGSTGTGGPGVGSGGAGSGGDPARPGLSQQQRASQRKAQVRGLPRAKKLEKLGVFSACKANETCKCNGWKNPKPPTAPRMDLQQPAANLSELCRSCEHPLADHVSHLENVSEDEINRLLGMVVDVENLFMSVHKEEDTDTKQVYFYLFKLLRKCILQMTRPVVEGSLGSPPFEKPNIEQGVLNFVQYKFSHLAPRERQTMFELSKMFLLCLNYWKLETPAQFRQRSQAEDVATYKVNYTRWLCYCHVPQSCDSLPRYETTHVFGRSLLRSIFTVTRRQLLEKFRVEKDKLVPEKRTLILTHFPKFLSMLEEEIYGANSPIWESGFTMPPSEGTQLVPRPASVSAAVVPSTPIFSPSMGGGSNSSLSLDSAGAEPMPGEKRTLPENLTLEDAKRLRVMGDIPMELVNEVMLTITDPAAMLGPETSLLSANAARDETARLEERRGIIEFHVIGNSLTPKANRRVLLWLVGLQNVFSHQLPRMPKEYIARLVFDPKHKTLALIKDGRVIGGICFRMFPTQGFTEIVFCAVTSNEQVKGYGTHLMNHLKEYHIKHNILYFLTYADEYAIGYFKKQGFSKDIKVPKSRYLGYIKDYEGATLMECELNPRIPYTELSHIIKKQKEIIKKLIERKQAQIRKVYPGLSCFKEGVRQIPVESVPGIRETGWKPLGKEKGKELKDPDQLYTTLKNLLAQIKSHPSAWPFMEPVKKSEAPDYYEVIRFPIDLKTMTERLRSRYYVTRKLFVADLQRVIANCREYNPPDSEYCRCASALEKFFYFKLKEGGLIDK
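Enzyme at 20nM final was mixed with library compounds for 15 min at room temperature. Peptide H3(1-25) at 75uM, acetyl-CoA at 70uM and ThioGlo1 at 50uM were then added. Plates were read immediately and after 20 min (Ex340nm/Em540nm).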
* hit, by the source's call; ? = inconclusive; & = joins results of further samples; [ ] = another dose, or the depositor's remark. % is scaled to controls: 0 for no effect and ±100 for the full control effect; potency is read from the fitted curve at half-maximal effect. Some of the compounds tested; most or all hits stand in other tables.

SMILES | KAT2A inh
CN1C[C@H](C(=O)N[C@]2(C)O[C@@]3(O)[C@@H]4CCCN4C(=O)[C@H](Cc4ccccc4)N3C2=O)C[C@@H]2c3cccc4[nH]cc(c34)C[C@H]21 | -12%
O=P1(Oc2ccccc2)OCCCS1 (stereo not drawn) | -1%
S=P(NC1CCCCC1)(N1CC1)N1CC1 | 3%
COc1ccc(C2=NS(=O)(=O)N(C)C(C(=O)N3CCC4(CC3)OCCO4)=C2)cc1OC | -10%
CC(ON1CC1(C(F)(F)F)C(F)(F)F)(C(N)=O)C(N)=O (stereo not drawn) | -2%
CCN1CCN(C(=O)Cc2c(C)n(C(=O)c3ccc(Cl)cc3)c3ccc(OC)cc23)CC1 | 1%
O=C(O)c1cc([N+](=O)[O-])cc([N+](=O)[O-])c1O | -16%
c1ccc2c(CN3CCCCCC3)c[nH]c2c1 | -3%
CCC(=NCCCN(C)C)c1c(O)n(-c2ccc(OC)cc2)c(=O)[nH]c1=O | ?
CC(C)C12CN3CC(C(C)C)(CN(C1)C3c1cccnc1)C2=O (stereo not drawn) | -7%
O=C1N=c2ccccc2=C/C1=C\c1c(O)[nH]c(=S)[nH]c1=O | 44%[activator]
CCOC(=O)c1cncn1[C@@H](C)c1ccccc1 | -2%
COc1cc2c(cc1OC)C13CCN4CC5=CCOC6CC(=O)N2C1C6C5CC43 (stereo not drawn) (tested in a mixture with another compound) | 1%
NNC(=O)c1nc[nH]c1C(=O)Nc1ccc(Cl)cc1C(=O)c1ccccc1 | -8%
CN(C)C1C(=O)C(C(N)=O)=C(O)C2(O)C(=O)C3=C(O)c4c(O)cccc4C(C)(O)C3C(O)C12 (stereo not drawn) | ?
Nc1ccccc1C(=O)c1ccccc1 | 0%
C[C@@H]1O[C@@H](O[C@H]2C[C@@H](O)[C@]3(CO)[C@H]4[C@H](O)C[C@]5(C)[C@@H](C6=CC(=O)OC6)CC[C@]5(O)[C@@H]4CC[C@]3(O)C2)[C@H](O)[C@H](O)[C@H]1O | -1%&-1%&1%
CC(C)(C)c1ccc(OC(=O)N2CCCCC2)cc1 | -9%
COc1ccc(C(c2c(O)c3ccccc3oc2=O)c2c(C)n(C)n(-c3ccccc3)c2=O)cc1 (stereo not drawn) | -2%&1%
COc1ccc(/C=C/c2nc3ccccc3c(=O)n2-c2ccc(C)cc2)cc1O | -15%
CCn1cc(C(=O)N2CCCCC2)c2ccccc21 | -14%
COc1ccc(C(c2ccc(OC)cc2)C(Cl)(Cl)Cl)cc1 | -11%&-1%
COc1cc2c(cc1OC)[C@H](C)NCC2 | ?
Nc1c(C(=O)Nc2cccc(Br)c2)sc2nc3c(cc12)N1CCC3CC1 | -12%
CC1O[C@@H](OC2CC(O)[C@@]3(CO)C4C(O)C[C@@]5(C)C(C6=CC(=O)OC6)CC[C@]5(O)C4CC[C@]3(O)C2)C(O)C(O)C1O (stereo partly drawn) | -6%
CCC1=CC2CN3CCc4c([nH]c5ccccc45)[C@@](C(=O)OC)(C2)[C@@H]13 | -15%
N=c1c2c(n(Cc3ccc(Cl)cc3Cl)c3c1CCC3)CCCC2 | -1%
OC1(c2ccccc2F)CC2CCC(C1)N2CCN1CCOCC1 (stereo not drawn) | -1%
Cc1nonc1OCCNc1ccc([N+](=O)[O-])c2cccnc12 | -6%
COC(=O)C1=C(c2cccc(C#N)c2)C[C@@H]2CC[C@H]1N2C(=O)NCCOc1ccccc1 | -7%
Cc1ccc2c(c1)C1CN(C)CCC1N2C(=O)c1ccc(Br)o1 (stereo not drawn) | -1%[0.501 µM]
O=C(N/N=C/c1c(O)n(-c2ccccc2)c(=S)[nH]c1=O)c1ccccc1 | -8%
COC(=O)C1=C(c2ccc(OCc3ccccc3)cc2)C[C@@H]2CC[C@H]1N2C(=O)NCCN1CCOCC1 | 0%
C[C@]12CC[C@H](O)CC1=CCC1C2CC[C@@]2(C)C1C[C@@H](O)[C@@H]2O (stereo partly drawn) | 0%
C=CCn1c(=O)c(C=Nc2cccnc2Cl)c(O)n(CCCC)c1=O | -7%
c1cc2c(c(N3CCNCC3)c1)OCCO2 | 23%
CCN(CC)c1ccc(CNCCc2ccc(F)cc2)cc1 | -5%
Cc1cnc(NC(=O)CN2CCCCC2)s1 | 1%
COC(=O)C1=C(c2ccc(-c3ccccc3)c(F)c2)C[C@@H]2CC[C@H]1N2C(=O)NCC1CC1 | -4%
c1ccc2nc(N3CCNCC3)ccc2c1 | -4%
C[C@H]1CCC/C=C/[C@@H]2C[C@H](O)C[C@H]2[C@H](O)/C=C/C(=O)O1 | 1%&2%&1%
CN1[C@H]2CC(OC(=O)[C@H](CO)c3ccccc3)C[C@H]1[C@H]1O[C@H]12 (stereo partly drawn) | -8%
COc1ccc(NC(=O)CN2C(=O)CN=C(c3ccccc3)c3ccccc32)c(OC)c1 | -7%
Cc1nn(Cc2ccccc2)c(C)c1C(=O)NC1CCCc2ccccc21 (stereo not drawn) | 0%
O=P(NS(=O)(=O)c1ccc(Br)cc1)(Oc1ccccc1)Oc1ccccc1 | -14%
O=C1CC[C@@]2(O)[C@H]3Cc4ccc(O)c5c4[C@@]2(CCN3CC2CC2)[C@H]1O5 | -3%
S=P(Nn1cnnc1)(c1ccccc1)c1ccccc1 | -11%
CSc1nc(NC(C)C)nc(NC(C)C)n1 | -6%
CCN1C(=O)CC(c2cccnc2)=Nc2ccccc21 | -1%
Cc1ccc(OCC(=O)N2CCN(CC3CC4C=CC3C4)CC2)cc1 (stereo not drawn) | -5%
CCC(C)N1C(=O)NC(=O)C2(Cc3cc(C)ccc3N(C)C2)C1=O (stereo not drawn) | -6%
COc1ccc(CN2CCCC(C(=O)c3ccc(Cl)cc3)C2)c(O)c1 (stereo not drawn) | -20%
Clc1ccc(COC(Cn2ccnc2)c2ccc(Cl)cc2Cl)cc1 (stereo not drawn) | -12%&-19%
O=C(CN1CCCCC1)c1ccc(F)cc1 | -2%
O=C(CCCN1CCC2(CC1)C(=O)NCN2c1ccccc1)c1ccc(F)cc1 | 5%&1%
CCCC(C)(COC(N)=O)COC(=O)NC(C)C (stereo not drawn) | 0%&-4%
O=C(C1CCC(=O)N1Cc1ccc(F)cc1)N1CCC2(CC1)OCCO2 (stereo not drawn) | -3%
CCCN1CCCC2Cc3nc(N)ncc3CC21 (stereo not drawn) | 1%
CCCCn1c(=O)c(C(=O)NCc2ccncc2)c(O)c2ccccc21 | -9%
O=C(CCS(=O)(=O)c1ccc(Br)cc1)N1CCC2(CC1)OCCO2 | -3%

Going on with the list.
SMILES | KAT2A inh
CCCC1=Nc2cc(C(=O)NC3CCC(C)CC3)ccc2Sc2ccccc21 (stereo not drawn) | -8%
c1ccc([C@H]2CNCc3ccccc32)cc1 | -9%
CCn1c(O)c(C=NCCN2CCOCC2)c(=O)n(CC)c1=S | -13%
CC1CN=C(NCCc2ccccc2)S1 (stereo not drawn) | -3%
CCOc1ccccc1-n1c(O)c(C=NCCCn2ccnc2)c(=O)[nH]c1=O | -8%
Cc1cc(OCC(=O)N2CCN(CCc3ccncc3)CC2)cc(C)c1Cl | -6%
C=CCOC(Cn1ccnc1)c1ccc(Cl)cc1Cl (stereo not drawn) | 2%&-20%
COc1ccccc1-n1c(CNCC2CCCO2)nc2ccccc2c1=O (stereo not drawn) | 0%
COc1ccc(CC(=O)Nc2ccc(C#N)c(Cl)c2)cc1S(=O)(=O)N1CCOCC1 | ?
CC[C@H]1CN2CCc3cc(OC)c(OC)cc3C2C[C@@H]1C[C@H]1NCCc2cc(OC)c(OC)cc21 (stereo partly drawn) | -4%
CC12CN3CN(C1)CC(c1ccccc1)(C3)C2=O | 4%
CC[C@H]1CN2CCc3cc(OC)c(OC)cc3[C@@H]2C[C@@H]1C[C@H]1NCCc2cc(OC)c(OC)cc21 | -4%&-1%
Cc1sc2ncn(CC(=O)N3CCC4(CC3)OCCO4)c(=O)c2c1C | 1%
N#CCP(=S)(c1ccccc1)c1ccccc1 | 3%
Cc1cc(C=C2C(=O)NC(=O)NC2=O)c(C)n1-c1cccnc1 | 4%
CCN1CCN(c2ccc([N+](=O)[O-])cc2C#N)CC1 | -1%
CCCNS(=O)(=O)c1ccc(OCC(=O)N2CCN(Cc3ccc4c(c3)OCO4)CC2)c(C)c1 | -4%
CC(C)n1cc(C(=O)N(CC(=O)NC2CCCC2)Cc2ccccc2)cn1 | -5%
CCCCSP1(=S)NCCCO1 (stereo not drawn) | -3%
Clc1cc(Cl)c(-c2cc(Cl)c(Cl)cc2Cl)cc1Cl | -6%
C[C@]12CCC3C(CC[C@H]4C[C@@H](O)CC[C@]34C)C1[C@H]1CN=N[C@H]1[C@@H]2O (stereo partly drawn) | -5%
COC(=O)C1=C(c2cccc(C#N)c2)C[C@@H]2CC[C@H]1N2C(=O)NCCOc1ccc(OC)cc1 | -12%
Clc1ccc(CCC(Cn2ccnc2)Sc2c(Cl)cccc2Cl)cc1 (stereo not drawn) | ?
NC(=O)CN1CC(O)CC1=O (stereo not drawn) | -3%&2%
CC(C(N)=O)N1CC(c2ccc(Cl)cc2)CC1=O (stereo not drawn) | -1%
COc1ccn(C)c(=O)c1C#N | -2%
CCc1nc2ccccc2c(=O)n1-c1ccccc1OC | 4%
CCCCn1c(O)c(C(C)=NC(Cc2c[nH]c3ccccc23)C(=O)OC)c(=O)[nH]c1=O (stereo not drawn) | -1%
Cc1ccc(N)c(N)c1 | -2%&5%
Cc1ccc2c(c1)N(C(=O)CCC(=O)N1CCC3(CC1)OCCO3)CCO2 | -6%

A draw from above in order of molar mass, smallest number first:
SMILES | KAT2A inh
COc1ccn(C)c(=O)c1C#N | -2%
CCc1nc2ccccc2c(=O)n1-c1ccccc1OC | 4%
CC(C)n1cc(C(=O)N(CC(=O)NC2CCCC2)Cc2ccccc2)cn1 | -5%
CCCCn1c(O)c(C(C)=NC(Cc2c[nH]c3ccccc23)C(=O)OC)c(=O)[nH]c1=O (stereo not drawn) | -1%

(continued)
SMILES | KAT2A inh
O=C1CC(=O)N(c2cccc(F)c2)C(=O)N1 | -10%
O=C(Cc1ccccc1)NC(Oc1ccccc1Cl)C(Cl)(Cl)Cl (stereo not drawn) | -5%
CN1C[C@H](C(=O)N[C@]2(C)O[C@]3(O)[C@H]4CCCN4C(=O)[C@H](Cc4ccccc4)N3C2=O)C[C@H]2c3cccc4[nH]cc(c34)C[C@@H]21 | 5%[21.4 µM]
O=C(Cc1ccccc1)N1CCN(Cc2c[nH]c3ccccc23)CC1 | -1%
O=C1CC[C@@]2(O)C3Cc4ccc(O)c5c4C2(CCN3CC2CC2)[C@H]1O5 (stereo partly drawn) | 2%&7%
O=C1NC(=O)C(CCc2ccncc2)(C2CCCCC2)C(=O)N1 | -2%
c1ccc(-c2cc(-c3ccccc3)[n+](-c3ccccc3)c(-c3ccccc3)c2)cc1 | 0%
Cn1c(=O)n(C)c2cc(CNCCc3ccccc3)ccc21 | -2%
COC(=O)CC1=C(C(=O)OC)C2(C(=O)N(C)c3ccccc32)C(C#N)=C(N)O1 (stereo not drawn) | -5%
CC(C)N(Cc1ccco1)/N=C/c1c(O)n(Cc2ccccc2)c(=O)[nH]c1=O | -2%
CCCCCCn1c(O)c(/C=N/N2CCCCCC2)c(=O)[nH]c1=O | -2%
C[C@]12CCC3C(CC[C@H]4C[C@H](O)CC[C@]34C)C1CCC2=O (stereo partly drawn) | 0%
Oc1cc(Cl)c(Cl)cc1Cl | -4%
C[C@]12CC[C@@H](O)C[C@H]1CC[C@@H]1[C@@H]2CC[C@]2(C)C(=O)CC[C@@H]12 | -6%
C=CCn1c(O)c(/C=C2\C=Nc3ccccc32)c(=O)[nH]c1=O | -1%
N#Cc1ccc(/C=C/C(=O)O)cc1 | -5%
CCNC(=S)N(C)CCc1cc2c(c(OC)c1C=C1C(=O)N(C)C(=O)N(C)C1=O)OCO2 | -14%
COC(=O)C1=C(c2ccc(F)cc2OCc2ccccc2)C[C@@H]2CC[C@H]1N2C(=O)NCc1cccc(OC)c1 | -12%
NCC1(CC(=O)O)CCCCC1 | 4%&-3%
NS(=O)(=O)c1ccc(N2CCNCC2)cc1 | -4%
O=C1CC[C@@]2(O)[C@H]3Cc4ccc(O)c5c4[C@@]2(CCN3CC2CC2)[C@@H]1O5 | -6%
O=c1[nH]c(=O)n(CCC2=CCCCC2)c(O)c1C=Nc1cccc(F)c1 | 36%[activator]
CC(Cc1ccccc1)N1C(=O)c2ccccc2C1=O (stereo not drawn) | -12%

Shown as tab-separated lines: 7 of the compounds above.
canonical_smiles	KAT2A inh
C=CCn1c(=O)c(C=Nc2cccnc2Cl)c(O)n(CCCC)c1=O	-7%
c1cc2c(c(N3CCNCC3)c1)OCCO2	23%
CCN(CC)c1ccc(CNCCc2ccc(F)cc2)cc1	-5%
Cc1cnc(NC(=O)CN2CCCCC2)s1	1%
COC(=O)C1=C(c2ccc(-c3ccccc3)c(F)c2)C[C@@H]2CC[C@H]1N2C(=O)NCC1CC1	-4%
c1ccc2nc(N3CCNCC3)ccc2c1	-4%
C[C@H]1CCC/C=C/[C@@H]2C[C@H](O)C[C@H]2[C@H](O)/C=C/C(=O)O1	1%&2%&1%
